NPYLR7 ag: mosquito NPYLR7 agonism; HEK293T NPYLR7/Galpha15, GCaMP6s calcium fluorescence; activation, % at 10 µM; 270,000 compounds, 0.15% hits; in the data active means activation above about 40%;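 further: 0% = vehicle and 100% = reference agonist at the receptor; some compounds past the cut are filed as inactive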
NPYLR7 ag max-min: further read-out of NPYLR7 ag, marked with its call; activation, %; measured here: Max-Min RFU normalised activation; some inactives read as strong as hits;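 span of the calcium signal over five minutes; 0% = vehicle and 100% = native peptide agonist; compound fluorescence can raise it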
Starred values were filed as active, the others as inactive; & = joins results of further samples. These rows are one share of the data, so the mix of outcomes need not match the whole.

Preview, 2 compounds:
Molecule	NPYLR7 ag	NPYLR7 ag max-min
Cc1cc(=O)[nH]c(CCn2cc(-c3ccc4c(c3)OCCO4)nn2)n1	-4	-7
Cn1c(=O)[nH]c(=O)c2c1nc1n2CCCN1c1ccc(Oc2ccccc2)cc1	3	3

All compounds of this part, from the start:
Molecule	NPYLR7 ag	NPYLR7 ag max-min
Cc1cc(=O)[nH]c(CCn2cc(-c3ccc4c(c3)OCCO4)nn2)n1	-4	-7
Cn1c(=O)[nH]c(=O)c2c1nc1n2CCCN1c1ccc(Oc2ccccc2)cc1	3	3
CCOc1cc(-c2nccn2C(C)c2nc(CC)no2)ccc1OC (stereo not drawn)	22	10
COc1ccccc1NS(=O)(=O)c1ccc(NN=C2CCC(C(C)(C)C)CC2)c([N+](=O)[O-])c1 (stereo not drawn)	-2	-4
COC(=O)c1cccc(-c2ncno2)c1	0	0
COC(=O)C1CSC(Cc2ccccc2)=N1 (stereo not drawn)	-1	-4
Cc1cc([N+](=O)[O-])cc(S(=O)(=O)NNC(=O)c2ccc3c(c2)OCCO3)c1C	-3	-4
CC(C)COc1nc(-c2ccccc2F)n(-c2ccc(NC(=O)c3ccc(Cl)c([N+](=O)[O-])c3)cc2)n1	3	10
CNc1cc(-c2ccc(F)c(F)c2F)ncn1	-1	-2
CCn1c(P(=O)(O)c2ccccc2)nc2ccccc21	8	5
COCCNC(=O)C1CCCN(C2CCN(Cc3noc(C)n3)CC2)C1 (stereo not drawn)	25	17
Cc1ccccc1CN1CCCN(C(=O)NCCC(=O)N2CCc3sccc3C2)CC1	-2	-2
CN(C)CC1(O)CCN(C(=O)CN(C)Cc2ccncc2)C1 (stereo not drawn)	4	4
Cc1ccc2nc(SCC(=O)Nc3ccccc3F)nc(=O)n2c1	3	-1
Nc1nc(SCC(=O)Nc2ccccc2C(F)(F)F)[nH]c(=O)c1NC(=O)c1ccccc1	-2	-7
Cc1cc(C)n2nc(SCc3cc(Cl)c4c(c3)OCCO4)nc2n1	21	15
CCCCN=C(N)N=C(N)N	-13	-25
COc1cc(-c2cc(C(F)(F)F)cc3[nH]cnc23)cc(OC)c1OC	7	3
Cc1cc2nc(N(Cc3cccnc3)C(=O)CS(=O)(=O)c3ccc(F)cc3)sc2cc1C	-7	-9
O=C(c1ccc2c(c1)OCCO2)N1CCC(Cn2cc(C3CC3)nn2)CC1	3	1
CCC(C)c1ccc(S(=O)(=O)N2CCN(CC(=O)N3CCCC3)CC2)cc1 (stereo not drawn)	1	1
COc1ccc2cc(CN(C)[C@H]3COC[C@@H]3O)c(=O)[nH]c2c1	-2	-2
Cc1cccc(NCC(=O)N2CCN(c3ccc(F)cc3)CC2)c1C	4	3
CC(=O)N1CCCCC1C1=CCCN(C/C=C/c2ccccc2)C1 (stereo not drawn)	-2	-4
CC(=O)Nc1ccc(NC(=O)c2ccc(-c3ccc([N+](=O)[O-])cc3Cl)o2)cc1	-4	-5
CC(C)c1cc(C2CCN(C(=O)c3ccc4nccnc4c3)CC2)[nH]n1	0	-1
C/C=C/C(=O)NCC1Cc2cc(F)ccc2O1 (stereo not drawn)	15	12
CO[C@H]1CN(C(=O)c2ccc(-n3cnnc3)cc2Cl)CC[C@H]1N	1	0
CCOC(=O)N1CCN(Cc2nc3c(c(=O)[nH]c(=O)n3C)n2CCC(C)C)CC1	-3	-3
COCCNC(=O)N1CC(C)CCCC1C (stereo not drawn)	18	10
O=C(Nc1ccccc1OC(F)(F)F)C1CCN(c2ccc(Cl)nn2)CC1	5	-1
O=C(CN1C(=O)C(=O)N(C23CC4CC(CC(C4)C2)C3)C1=O)N1CCOCC1	6	3
CCC(Nc1nc(CCN)nc2ccccc12)c1cc(C)ccn1 (stereo not drawn)	-2	1
Cc1ccnc(NCCNC2CCCCCC2)c1	12	13
CCCOC(=O)C1=C(C)NC2=C(C(=O)CCC2)C1c1ccc(OC)cc1OC (stereo not drawn)	1	7
COc1ccc(CN(CCc2c[nH]c3ccccc23)C(=O)CN(C(=O)c2ccccc2C)C2CC2)cc1OC	-8	1
CCOC(=O)c1ccc2c(c1)nc(SCc1ccccc1SC(F)(F)F)n2CCc1ccc(OC)cc1	27	23
COc1ccc2[nH]c(=O)c(C3CC(=O)Nc4c3c(C(C)C)nn4C)cc2c1 (stereo not drawn)	4	1
O=C1NC(C2CCCC2)=NC12CCN(c1ncnc3nc[nH]c13)CC2	0	-4
O=S(=O)(Nc1cccc(S(=O)(=O)N2CCCC2)c1)c1ccc2ccccc2c1	7	12

Compound profiles (already shown):
O=C1NC(C2CCCC2)=NC12CCN(c1ncnc3nc[nH]c13)CC2 is listed as NPYLR7 ag = 0; NPYLR7 ag max-min = -4
CCOC(=O)c1ccc2c(c1)nc(SCc1ccccc1SC(F)(F)F)n2CCc1ccc(OC)cc1 is listed as NPYLR7 ag = 27; NPYLR7 ag max-min = 23
COc1ccc2[nH]c(=O)c(C3CC(=O)Nc4c3c(C(C)C)nn4C)cc2c1 (stereo not drawn) is listed as NPYLR7 ag = 4; NPYLR7 ag max-min = 1

Next part:
Molecule	NPYLR7 ag	NPYLR7 ag max-min
CCN(CC1CCCN(CCc2cccc(OC)c2)C1)C(=O)C1CCOCC1 (stereo not drawn)	0	-2
CC1(C)OCC(CNC(=O)c2ccccc2-c2ccc(S(C)(=O)=O)cc2)O1 (stereo not drawn)	-6	-14
Cc1ncc(CN(CCO)Cc2cccs2)[nH]1	3	1
NC(=O)Cc1ccc(C(=O)CSc2nnc(-c3cccs3)n2C2CC2)s1	0	7
Cc1cccc(Cn2c(N3CCN(CCCc4ccccc4)CC3)nc3c2c(=O)[nH]c(=O)n3C)c1	12	10
O=C(Nc1cccc2ccccc12)c1cccc(N2C(=O)CCC2=O)c1	0	-1
COc1cc(OC)cc(C(=O)N2CCCN(Cc3cc(=O)c(OCc4ccc(C(C)(C)C)cc4)co3)CC2)c1	25	3
CCc1cn[nH]c1C1CCN(C(=O)c2cc3sccc3[nH]2)CC1	-5	-6
CC(C#N)(NC(=O)Cc1ccc(-c2ccccc2)cc1)C1CC1 (stereo not drawn)	3&-1	0&17
COc1ccc(CCOC(=O)[C@@H]2CCCN2C(=O)c2cc(F)cc(F)c2)cc1OC	-3	-5

Later entries.
Results follow in this order: NPYLR7 ag | NPYLR7 ag max-min
NC(=O)C1CCCN(C(=O)CSC2CCCc3ccccc32)C1 (stereo not drawn)
 : -2 | -5
CC(=O)C1=C(c2ccc(C)c(C)c2)N(C(C)=O)n2c(C)nnc2S1
 : 2 | -2
Cc1ccc(CNC(=O)CCc2nc3ccccc3s2)n1C
 : 26 | 13
Oc1oc(-c2ccc(Cl)cc2)nc1C=Nc1ccccn1
 : -11 | -17
CCc1n[nH]c(=S)n1N=C(C)c1cc2ccccc2o1
 : -7 | -6
CCOc1cccc(-c2cc(N3CCN(CCN(C)C)CC3)n3nccc3n2)c1
 : -4 | -10
CN(C)c1nc(N(C)C)nc(N(C#N)CCOc2ccccc2)n1
 : -1 | 0
COC(=O)c1cc(CN2CCCC(OCc3cccnc3)C2)cs1 (stereo not drawn)
 : 4 | -4
COc1cc(C(=O)NC(=S)Nc2cc(C)on2)cc(OC)c1OC
 : 1 | -1
CN1CCN(c2ncccc2CNC(=O)COCC2CCCO2)CC1 (stereo not drawn)
 : 5 | 5
COc1ccc(OC)c(S(=O)(=O)N2CCN(c3cc(S(=O)(=O)N4CCc5cc(OC)c(OC)cc5C4)ccc3OC)CC2)c1
 : 5 | -1
O=C(Nc1cccc(Cl)c1Cl)c1ccc(=O)n(Cc2ccccc2)c1
 : 5 | 1
O=C(NCc1ccco1)C(C1CCCC1)N1CCN(C(=O)c2ccc(Cl)cc2)CC1 (stereo not drawn)
 : -1 | 1
CCCCc1ccc(C(=O)N(CC(=O)Nc2c(-c3ccccc3)c(C)nn2-c2ccc(OC)cc2)C(C)C)cc1
 : 14 | 17
CC(Sc1nnc(C(C)(C)C)o1)C(=O)C12CC3CC(CC(C3)C1)C2 (stereo not drawn)
 : 7 | 6
COc1ccc(-c2cccc(-c3cccc(NC(=O)c4cccc(C#N)c4)c3)n2)cc1
 : 1 | 11
Cc1ccc2nc(C3CCN(C(=O)c4cn(CC5CCCO5)nn4)CC3)[nH]c2c1 (stereo not drawn)
 : 7 | 4
CN(Cc1nc2ccccc2n1Cc1ccccc1)C(=O)c1ccco1
 : 2 | -1
COc1cccc(-c2ccc(NC(=O)C3CCCN3C(=O)Cn3cccn3)cc2)c1 (stereo not drawn)
 : 10 | 1
O=C(c1cnn(-c2ccc(Cl)cc2)c1-c1ccccc1)N1CCCC1
 : 1 | 6
COc1ccc(/C=C\c2cc(OC)c(OC)c(OC)c2)cc1O
 : -4 | -7
CC1CC(c2cccc(F)c2)N(C(=O)NCCC(=O)N(C)C)C1 (stereo not drawn)
 : 0&17 | -1&13
COCCN1C(=O)c2ccccc2[C@H](C(=O)N2CCN(c3nc(-c4ccccc4)ns3)CC2)[C@@H]1c1cc2c(cc1Cl)OCO2
 : -5 | -8
CC(C)OC(=NCc1ccccn1)NC(=O)c1cccs1
 : 21 | 27
O=C(O)C1Cc2c([nH]c3ccccc23)C(c2ccc3c(c2)OCO3)N1 (stereo not drawn)
 : -1 | 2
O=C(Cn1c(=O)n(-c2ccccc2F)c(=O)c2ccc(Cl)cc21)NCc1cccc(C(F)(F)F)c1
 : 17 | 27
CCOC(=O)c1nn(CCc2ccccc2)c2c1CN(C(=O)c1cnccn1)CC2
 : 10 | 2
COc1cccc(CN(CC2CC(c3ccc(F)cc3)=NO2)C(=O)Nc2ccccc2OC)c1 (stereo not drawn)
 : 29 | 39
O=c1c2c(-c3cccc4ccccc34)ccnc2[nH]n1-c1ccccc1
 : -3 | -13
CC(C)(C)OC(=O)N1CCC(Oc2ccc(NC(=O)c3ccccc3C(F)(F)F)cc2)C1 (stereo not drawn)
 : -15 | -23

3 entries from above, with each value named.
> CN(C)c1nc(N(C)C)nc(N(C#N)CCOc2ccccc2)n1
  NPYLR7 ag: -1
  NPYLR7 ag max-min: 0

> CCOC(=O)c1nn(CCc2ccccc2)c2c1CN(C(=O)c1cnccn1)CC2
  NPYLR7 ag: 10
  NPYLR7 ag max-min: 2

> O=C(Nc1cccc(Cl)c1Cl)c1ccc(=O)n(Cc2ccccc2)c1
  NPYLR7 ag: 5
  NPYLR7 ag max-min: 1

Other structures follow:
Results follow in this order: NPYLR7 ag | NPYLR7 ag max-min
Cc1ccc(CN(Cc2ccc(C(O)(c3ccc(F)cc3)c3ccc(F)cc3)o2)C2CC2)o1
 : 11 | 16
NC(=O)NC(=O)C[P+](c1ccccc1)(c1ccccc1)c1ccccc1
 : -1&3 | -8&2
CCOc1ccc(S(=O)(=O)Nc2ccc(Br)cc2O)cc1
 : -5 | -7
CCOC(=O)c1ccc(N=c2scc(-c3ccc4c(c3)CCC(=O)N4)n2CC2COc3ccccc3O2)cc1 (stereo not drawn)
 : -3 | -8
Cc1cc(OC(=O)c2cc3ccccc3o2)c([N+](=O)[O-])c(=O)[nH]1
 : -3 | -3
COc1ccc(C[C@H](NC(=O)C2=C[C@@H](Oc3c(Br)cc(C)c4c3CCC4)[C@H](O)[C@H](O)C2)C(N)=O)cc1
 : -8 | -16
CN(CCC1CCCCO1)C(=O)c1cn(C/C=C/c2ccccc2)nn1 (stereo not drawn)
 : 2 | -2
CCOC(=O)C1CCCN(CC(=O)N2N=C(c3ccccc3Cl)CC2c2ccc3c(c2)OCO3)C1 (stereo not drawn)
 : -2 | 5
Cc1cc(CN2CCN(c3ccccc3O)CC2)on1
 : -2 | 2
CN1CC=C2C(C#N)C(=N)C(C#N)(C#N)C(c3ccccc3)C2C1 (stereo not drawn)
 : 9 | 4
C=CCN(Cc1ccc(F)cc1)C(=O)c1cnn2c1CCCC2
 : -2 | -4
CC(=O)N1CCc2c(sc(NC(=O)c3ccccc3C)c2-c2nc3ccccc3s2)C1
 : -1 | -4
CCOc1cccc(C=C(C#N)c2ccccn2)c1OC(F)F
 : 17 | 20
Cc1cccc(C(=O)Oc2coc(CSc3nccn3C)cc2=O)c1
 : -8 | -12
CC(C)COc1nc(-c2ccc(C(F)(F)F)cc2)n(-c2ccc(NC(=O)COc3ccccc3)cc2)n1
 : 0 | 3
O=C(C1CCCN(CC(O)c2ccccc2F)C1)N1CCOCC1 (stereo not drawn)
 : 6 | 5
COCC(=O)N1CCN(c2nc(C)nc(C)c2Cc2cccc(C)c2)CC1
 : 33 | 31
CCOC(=O)C1(Cc2cccc(OC)c2)CCCN(C(=O)c2cccnc2OC)C1 (stereo not drawn)
 : 5 | 4
COc1ccc(-c2cc(C(F)(F)F)n3nc(C(=O)N4CCOCC4)c(Br)c3n2)cc1
 : -3 | -8
CSc1ccc(CN2CCCC(N3CCN(c4ccccc4C)CC3)C2)cc1 (stereo not drawn)
 : 2 | -1
CCOC(=O)c1c(C)c(C(=O)CN(Cc2ccco2)S(=O)(=O)c2cc(Cl)ccc2Cl)c(C)n1CC
 : -13 | -4
COc1ccc2c(c1)CN(C1CC1)C(=O)CCN2CC(O)CC(F)(F)F (stereo not drawn)
 : 17 | 20
COC(=O)CCn1cc(C2CC(=O)Nc3cc4c(cc32)oc(=O)n4C)cn1 (stereo not drawn)
 : 7 | 2
O=C1NCCN2CCN(C(=O)C3(c4ccccc4F)CC3)CC12 (stereo not drawn)
 : 4 | 4
COc1cc(OC)cc(C(=O)NC2CCN(c3ccccc3C(=O)NC(C)c3ccccc3)CC2)c1 (stereo not drawn)
 : 1 | -1
O=S(=O)(NCc1cccs1)c1cccc(S(=O)(=O)c2ccc(Br)cc2)c1
 : 2 | 0
O=C(Nc1ccnn1C1CCN(C(=O)c2cccnc2)CC1)c1ccc2c(c1)OCO2
 : 0 | -1
COCCn1c(SCC(=O)Nc2nnc(C)s2)nc2c([nH]c3ccccc32)c1=O
 : 10 | 10
Cc1ccc(C(=O)Nc2cc(C)nn2-c2nc3c(c(=O)[nH]2)CCC3)cc1
 : -3 | -4
CCN(CC(=O)NC(C)(C)C)C(=O)c1csc(COC)n1
 : 0 | -1
O=C(Cc1ccon1)Nc1ccc(Br)cc1C(F)(F)F
 : 6 | 4
CS(=O)(=O)NCC1CCN(Cc2cccc(-n3cccn3)c2)C1 (stereo not drawn)
 : 4 | -6
COc1cccc(-c2[nH]ncc2C(=O)NC2CCC(n3cnnc3)CC2)c1 (stereo not drawn)
 : 0 | -3

Compound activity as filed in PubChem BioAssay.
